KCNQ2 inh = KCNQ2 potassium channel inhibitors, primary screen, cell-based, CHO-K1, FluxOR thallium flux, B-score (AID 2156) | 20 min; stronger effect = lower value; only compounds with negative scores are shown here; some inactives read as strong as hits | B-score at 10 µM | 1.1% of 310,000 active;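 active = fluorescence ratio B-score at most minus 3 library SDs, with starting brightness B-score within 2 library SDs, cut at about -5.5 in these data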
Target sequence (O88943 whole entry, looked up): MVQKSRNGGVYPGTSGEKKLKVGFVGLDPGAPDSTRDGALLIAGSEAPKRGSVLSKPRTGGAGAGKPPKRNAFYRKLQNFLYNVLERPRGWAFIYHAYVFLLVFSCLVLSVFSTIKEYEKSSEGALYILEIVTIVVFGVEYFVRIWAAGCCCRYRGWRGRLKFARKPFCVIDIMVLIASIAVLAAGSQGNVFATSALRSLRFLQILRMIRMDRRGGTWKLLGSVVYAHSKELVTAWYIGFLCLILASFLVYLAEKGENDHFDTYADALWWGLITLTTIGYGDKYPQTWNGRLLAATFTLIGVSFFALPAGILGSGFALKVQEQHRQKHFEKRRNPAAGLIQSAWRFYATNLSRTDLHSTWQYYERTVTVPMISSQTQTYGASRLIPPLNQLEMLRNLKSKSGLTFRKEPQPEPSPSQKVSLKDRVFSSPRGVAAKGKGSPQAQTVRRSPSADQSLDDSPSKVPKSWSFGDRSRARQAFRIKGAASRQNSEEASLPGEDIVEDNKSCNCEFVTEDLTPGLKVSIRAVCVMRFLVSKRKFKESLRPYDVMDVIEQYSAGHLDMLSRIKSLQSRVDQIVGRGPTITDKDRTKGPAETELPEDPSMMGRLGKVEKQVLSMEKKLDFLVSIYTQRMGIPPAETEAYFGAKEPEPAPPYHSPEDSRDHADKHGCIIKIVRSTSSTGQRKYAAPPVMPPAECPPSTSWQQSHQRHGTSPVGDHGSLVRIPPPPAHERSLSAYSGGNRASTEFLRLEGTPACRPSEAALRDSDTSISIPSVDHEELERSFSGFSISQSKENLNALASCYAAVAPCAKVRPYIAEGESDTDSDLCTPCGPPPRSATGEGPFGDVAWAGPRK
KCNQ2 inh baseline = also measured in KCNQ2 inh; calls as there; B-score; measured here: initial fluorescence intensity artifact check;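 brightness before thallium and not channel activity; 0 = typical well and far values either way flag optical interference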
The depositor's hits bear a star; i = inactive.

SMILES	KCNQ2 inh	KCNQ2 inh baseline
COc1cc(F)ccc1S(=O)(=O)N1CCN(C23CC4CC(CC(C4)C2)C3)CC1	i	-0.11
O=C(NCc1nnc(SCC(=O)N2CCCC2)o1)c1c(F)cccc1F	i	0.42
COc1ccc(-c2cc(C)no2)cc1S(=O)(=O)Nc1ccccc1	i	-2.46
CN(c1cccc(NS(=O)(=O)c2ccccc2)c1)S(C)(=O)=O	i	0.13
COC(=O)CSc1nnc(NC(=O)C2CC(=O)N(c3ccc(F)cc3)C2)s1 (configuration not stated)	i	1.19
O=C(N/C(=C/c1ccco1)C(=O)N1CCCC1)c1cccs1	i	0.08
CCOC(=O)Cc1c(C)nc(SC)[nH]c1=O	i	0.02
CCN(CC)C(=O)CN1CCC(c2nc3cc(C)c(C)cc3[nH]2)CC1	i	1.23
CCOC(=O)N1CCN(C(=O)c2ccc(N3CC4CC(C3)c3cccc(=O)n3C4)c(NC(=O)c3ccc(F)cc3)c2)CC1 (configuration not stated)	i	-0.24
O=C(COC(=O)c1cc[n+]([O-])cc1)NCC12CC3CC(CC(C3)C1)C2	i	-0.01
OCCCNc1nc(-c2ccc(Cl)cc2)nnc1-c1ccccc1	i	1.4
Cc1cccc(-n2cnc(C(=O)N3CCN(C)CC3)c2)n1	i	-0.22
CC(=O)c1ccc(NC(=O)CSc2nccn2CCc2ccccc2)cc1	i	2.53
c1ccc2c(NC3C4CC5CC(C4)CC3C5)nc(N3CCOCC3)nc2c1 (configuration not stated)	i	1.51
O=C(Nc1ccc2c(c1)OCO2)Nc1ccc(F)cc1F	i	2.83
CN(CCCC(=O)Nc1ccccc1)S(=O)(=O)c1ccc(Cl)cc1	i	-0.75
Cc1cccc(C(=O)N2CC(=O)Nc3ccc(F)cc3C2c2ccc(F)cc2)c1 (configuration not stated)	i	-1.3
c1ccc(CCNc2ncnc3c2nnn3Cc2ccccc2)cc1	i	-1.54
CCCc1nc2ccc(N)cc2c(=O)n1Cc1ccccc1Cl	i	0.03
CC1CCCC(C)N1C(=O)COC(=O)C1CCN(S(=O)(=O)c2c(Cl)cccc2Cl)CC1 (configuration not stated)	i	-1.11
CN(CC(=O)O)S(=O)(=O)c1cccs1	i	0.63
Cc1ccn2cc(-c3cccc(NC(=O)c4cccs4)c3)nc2c1	i	-0.32
C=CCn1c(SCC(=O)Nc2ccc(S(N)(=O)=O)cc2)nnc1-c1cnccn1	i	-0.76
O=C(CCCOc1ccccc1)N1CCc2ccccc2C1	i	0.4
CCOc1ccccc1OCCC(=O)NNC(=O)Cn1nc(C)cc1C	i	0.4
CCN(CC(=O)Nc1c(F)cccc1F)C(=O)c1ccc2ccccc2n1	i	-0.21
CCOC(=O)C[C@H]1c2cc(F)ccc2S(=O)(=O)N1Cc1ccc(OC)cc1	i	0.23
OC1(c2cccc(C(F)(F)F)c2)CCN(c2ncnc3c2[nH]c2ccccc23)CC1	i	-0.17
c1ccc(C[C@H]2CNCCN2CCC23CC4CC(CC(C4)C2)C3)cc1	i	-0.06
COC(=O)C1=C(C)NC(c2c(O)ccc3ccccc23)C(C(=O)OC)=C1C (configuration not stated)	i	0.24
Cc1[nH]ncc1-c1ccccc1Cl	i	1.41
CCOC(=O)N1CCN(C(=O)c2ccc(N3CCCC3=O)cc2)CC1	i	-0.36
Cc1nnc(N2CCCC(C(=O)NCc3cccc(F)c3)C2)c2nn(-c3ccccc3)c(C)c12 (configuration not stated)	i	-1.19
Cc1ccccc1OCC(=O)NCCCNC(=O)c1ccncc1	i	0.3
CC(=O)Nc1cccc(C(=O)OCC(=O)N2CCC(c3ccccc3)=N2)c1	i	-0.01
CCC12C(=O)C(CC)(C(c3ccccc3)=C1c1ccccc1)[C@@H]1C(=O)N(c3ccc(C)cc3)C(=O)C12 (some centres not stated)	i	0.93
COc1ccccc1NC(=O)Cc1noc(CSc2nnc(C)n2C)n1	i	0.74
Nc1nonc1-n1nnc(C(=O)N/N=C/c2ccoc2)c1CSc1ccc(Cl)cc1	i	1.27
COc1ccc(-c2nc3ccccc3nc2-c2ccccc2)cc1OC	i	0.63
O=C(c1ccc(C(F)(F)F)cc1)N1CCC(=O)N(C(CO)Cc2ccccc2)CC1 (configuration not stated)	i	0.02
O=C(CN1CCN(S(=O)(=O)c2ccc(Br)cc2)CC1)c1ccc(O)c(O)c1	i	0.16
COc1ccccc1-n1nnnc1SCC(=O)NC1CCCCC1	i	-0.08
N/C(Cc1ccc([N+](=O)[O-])cc1)=N\OC(=O)c1ccc([N+](=O)[O-])cc1	i	0.21
Cc1nn(C)cc1S(=O)(=O)N1CCN(c2ccc(F)cc2)CC1	i	-0.5
COc1ccccc1C(=O)COC(=O)c1cc([N+](=O)[O-])ccc1N1CCOCC1	i	-0.67
O=C(OCC(=O)N1CCc2ccccc21)c1ccc[nH]c1=O	i	3.24
COC(=O)CN1C(=O)C2(OCCCO2)c2ccccc21	i	-0.09
COc1ccc(OC)c(/C=C/C(=O)c2ccc3c(c2)OCCO3)c1	i	-0.77
CCCC(=O)O[C@@H]1C[C@@H](C)N(C(=O)c2ccccc2)c2ccc(C)cc21	i	-2.15
COc1ccc(Cl)c2c1[nH]c1nc(SCc3cccnc3)nnc12	i	-0.53
CCS(=O)(=O)N1CCC(NC(=O)c2ccco2)CC1	i	1.52
Cc1ccc(-c2nc(N)sc2-c2ccc(C)cc2)cc1	i	1
Cc1nc2ccccc2n1CC(=O)NC(C)C1CC2CCC1C2 (configuration not stated)	i	4.74
CCC(C)NC(=O)CCc1nc2ccccc2n1-c1ccccc1 (configuration not stated)	i	-0.81
CCn1c(=O)c2cc(C(=O)N(C)c3ccccc3F)sc2c2ccccc21	i	-0.03
CC(C)(C)NC(=O)NC(=O)COC(=O)Cc1c(F)cccc1Cl	i	2.31
O=S(=O)(c1ccccc1)[C@@]1(c2ccccc2)C[C@@H]2ON=C(c3cccc(Br)c3)[C@@H]2C1	i	-0.72
COC(=O)c1c(NC(=O)Cc2ccccc2)sc2c1C(C(=O)OC)CC2 (configuration not stated)	i	-0.07
Cc1cccn2c(=O)c(C=O)c(Cl)nc12	i	-1.47
COc1cc(C(=O)Nc2ccc(N3CCCS3(=O)=O)cc2)c([N+](=O)[O-])cc1OC	i	-1.32

Another view of seven compounds above:
Under each structure – KCNQ2 inh, KCNQ2 inh baseline
- O=S(=O)(c1ccccc1)[C@@]1(c2ccccc2)C[C@@H]2ON=C(c3cccc(Br)c3)[C@@H]2C1
  i, -0.72
- CCOC(=O)N1CCN(C(=O)c2ccc(N3CC4CC(C3)c3cccc(=O)n3C4)c(NC(=O)c3ccc(F)cc3)c2)CC1 (configuration not stated)
  i, -0.24
- O=C(OCC(=O)N1CCc2ccccc21)c1ccc[nH]c1=O
  i, 3.24
- COc1ccc(-c2cc(C)no2)cc1S(=O)(=O)Nc1ccccc1
  i, -2.46
- COc1ccccc1NC(=O)Cc1noc(CSc2nnc(C)n2C)n1
  i, 0.74
- Cc1nc2ccccc2n1CC(=O)NC(C)C1CC2CCC1C2 (configuration not stated)
  i, 4.74
- CCn1c(=O)c2cc(C(=O)N(C)c3ccccc3F)sc2c2ccccc21
  i, -0.03

The list goes on:
SMILES	KCNQ2 inh	KCNQ2 inh baseline
O=C(O)c1cccc2[nH]c(C(F)(F)F)nc12	i	-1.22
Cn1c(SCC(=O)N/N=C/c2cccs2)nc2ccccc21	i	-0.04
C=CC#CC1(O)CC(C)N(C)CC1C (configuration not stated)	i	0.03
CCN(C(=O)COC(=O)/C(=C/c1ccccc1)n1nnnc1C)C1CCCCC1	i	0.41
Clc1ccc(C(c2nnnn2C2CCCC2)N2CCN(Cc3ccncc3)CC2)cc1 (configuration not stated)	i	-0.66
Cc1ccc(CSCC(=O)Nc2ccc3c(c2)OCO3)cc1	i	-0.03
Cc1ccccc1CO/N=C/c1[nH]ncc1Br	i	0.11
CC(NCCc1ccc(S(N)(=O)=O)cc1)C(=O)NCc1ccccc1 (configuration not stated)	i	-0.25
Cc1ncc([N+](=O)[O-])n1CC(=O)Nc1cccc(C(F)(F)F)c1	i	0.57
CN(C)c1cccc(C(=O)NCc2ccc(Cl)cc2)c1	i	-1.09
N=c1c2c(-c3ccccc3)c(-c3ccccc3)n(Cc3ccco3)c2ncn1CCO	-7.04*	-0.5*
Cc1ccc(-c2csc(-c3c[nH]c4ccccc34)n2)cc1	i	0.86
CS(=O)(=O)c1cnc2c(-c3ccsc3)cnn2c1N	i	0.6
COc1ccc(CN(C(=O)c2snc(C(N)=O)c2N)C(C(=O)NC(C)(C)C)c2ccco2)cc1 (configuration not stated)	i	-0.2
CC(C)(C)C(=O)NC(Nc1cccc2cccnc12)C(Cl)(Cl)Cl (configuration not stated)	i	0.14
O=C(CSc1nc2ccccc2c(=O)n1-c1ccccc1)c1cccc([N+](=O)[O-])c1	i	-0.57
COc1ccccc1C(=O)NCCNC(=O)c1ccc(C)nc1	i	-0.29
CC1C(c2ccccc2)=[N+]([O-])C2(CCCC2)N1O (configuration not stated)	i	0.96
CC1CCCCN1Cc1nc2c(c(=O)n(C)c(=O)n2C)n1CCCc1ccccc1 (configuration not stated)	i	0.53
CSc1ccc(CN(C)CC(=O)NCc2ccc(F)cc2)cc1	i	-0.64

Brought forward from above: three compounds; new compounds follow.
SMILES	KCNQ2 inh	KCNQ2 inh baseline
CC1C(c2ccccc2)=[N+]([O-])C2(CCCC2)N1O (configuration not stated)	i	0.96
CC1CCCCN1Cc1nc2c(c(=O)n(C)c(=O)n2C)n1CCCc1ccccc1 (configuration not stated)	i	0.53
CSc1ccc(CN(C)CC(=O)NCc2ccc(F)cc2)cc1	i	-0.64
COc1cccc(C2CCCCN2Cc2nc(-c3ccc(C)o3)oc2C)c1 (configuration not stated)	i	-0.16
C=C1C(=O)O[C@@H]2[C@H]1CC[C@H](C)[C@]1(O)CCC(=O)[C@@]21C	i	0.88
CCOCCCNC(=O)C1(O)c2cc(Br)ccc2NC(=O)N1c1ccc(CC)cc1 (configuration not stated)	i	0.33
CC(CN1CCOCC1)OC(=O)c1cccc(Cl)c1 (configuration not stated)	i	-0.49
Cc1ccccc1C(=O)c1c[nH]c(C(=O)N2CCN(c3ccccc3F)CC2)c1	i	-0.41
COc1cc(C2Nc3cc(C)c(C)cc3NC3=C2C(=O)CC(C)(C)C3)ccc1OC(C)=O (configuration not stated)	i	-1.73
COc1cccc(C(=O)NCc2ccccc2OC)c1	i	1.54
CC1(C)OC(C(N)=O)C(C(N)=O)O1 (configuration not stated)	i	1.06
O=C(NCCC1CCCCN1S(=O)(=O)c1ccc(F)cc1)C(=O)NCc1ccncc1 (configuration not stated)	i	-0.25
FC(F)Oc1ccc(NC(=S)NCCc2ccccn2)cc1	i	-1.2
O=c1cc(C(F)(F)F)c2sc(N3CCCCC3)nc2[nH]1	i	-1.67
O=C(Nc1c(C(=O)c2ccccc2)oc2ccccc12)c1cc(-c2ccccc2O)n[nH]1	i	0.26
O=c1c(C(c2ccc(Br)cc2)c2c(O)nc3n(c2=O)CCCS3)c(O)nc2n1CCCS2	i	-1.98
Oc1c(Br)cc(/C=N/n2c(-c3ccccc3)n[nH]c2=S)c(O)c1Br	i	-1.32
COC(=O)c1cn(C(=O)c2cccc(C)c2)c2ccccc12	i	0.17
CC(C)=CC(=O)Nc1nnc(-c2ccccc2)s1	i	-1.62
Cc1cc(NC2CCCC2)n2nc(C)c(-c3ccccc3)c2n1	i	-0.82
CCOc1ccc(S(=O)(=O)N(CC(=O)O)c2ccc(C)cc2)cc1	i	-1.29
O=S(=O)(NC1c2cccc3cccc(c23)C1Sc1ncccn1)c1ccc(Cl)cc1 (configuration not stated)	-6.31*	1.83*
CC(=O)Nc1ccc(NC(=O)C2CCCN2C(=O)NCc2ccccc2)cc1 (configuration not stated)	i	0.56
COc1ccc(-n2c(CNC(=O)c3ccc(S(=O)(=O)N4CCCC4)cc3)n[nH]c2=S)cc1	i	1.24
CCCCC1(O)CC(C(F)(F)F)=NN1C(=O)COc1ccccc1 (configuration not stated)	i	0.84
CC(C)OC(=O)/C(=C\c1ccccc1)NC(=O)c1ccccc1	-5.6*	0.14*
Cc1ccc(-c2nn(-c3ccccc3)cc2C(=O)Nc2ccc(C)c(S(=O)(=O)N3CCOCC3)c2)cc1	i	0.11
Cc1c(C(=O)NC2CCCCC2)oc2c1C(=O)CC(C)(C)C2	i	0.01
CCc1ccc(N2CCN(C(=O)N3CCOCC3)CC2)cc1	i	-0.89
COc1ccc(-c2nc3c(c(SCC(=O)Nc4cccc(O)c4)n2)Cc2c(CO)cnc(C)c2O3)cc1	i	2.02
CN1CCN(C(=O)c2cccn(Cc3c(Cl)cccc3Cl)c2=O)CC1	i	-0.87
O=Cc1c(N2CCN(c3cccc(Cl)c3)CC2)nc2ccccn2c1=O	i	-2.19
Clc1ccc(-n2cc(COCc3ccccc3)nn2)cc1	i	-0.53
CC(=O)CSc1nc2ccccc2o1	i	-2.92
Cc1cccc(C(=O)NCC(=O)NNC(=O)c2ccccc2O)c1	i	-1.27
Cc1cccc(CSCc2ccc(C(=O)NC(C)C)o2)c1	i	-0.11
CN(C)S(=O)(=O)c1cccc(NC(=O)C2Cc3ccccc3CN2C(=O)c2ccccc2)c1 (configuration not stated)	i	0.38
CCOC(=O)c1nc(Nc2ccccc2CC)c2ccccc2n1	i	-0.78
CC1CCc2cc(F)cc3c(O)c(C(=O)NCC4CCCO4)c(=O)n1c23 (configuration not stated)	i	-1.54
COc1ccc(N2CCN(C(=S)Nc3cc(C)cc(C)c3)CC2)cc1	i	0.23
COC(=O)C(NC(=O)c1ccc(F)cc1)(Nc1ncc(S(=O)(=O)c2ccc([N+](=O)[O-])cc2)s1)C(F)(F)F (configuration not stated)	i	-1.75
Nc1nc(-c2ccccc2)nn1C(=O)Cc1ccccc1	i	0.03

Screening results: PubChem BioAssay, Johns Hopkins Ion Channel Center

An excerpt; the hit share may differ from the screen's.
